OX1R FRET antag = blocks the human orexin 1 receptor | OX1R-expressing cells, FRET antagonist read-out | 330,000 tested, 1.8% active | O43613 | inhibition, % at 6.6 µM; in the data active means inhibition mostly above about 38%, no sharp cut-off; inactive means mostly below about 40%;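 further: 0% = agonist challenge alone and 100% = reference antagonist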
Active calls of the source: *. Not all compounds are listed; most or all hits stand in other tables.

For CCCCCCCNC(=O)C1(CC2CC(c3ccccc3)=NO2)CCNCC1 (stereo unspecified) the results were OX1R FRET antag 29.
Screening CCOC(=O)CCc1c(C)nc2cc(C3CCCN(C(=O)OC(C)(C)C)C3)[nH]n2c1=O (stereo unspecified) returned OX1R FRET antag 0.
Screening COc1ccc(NS(=O)(=O)c2ccc(O)c(C(=O)OCC(=O)N3CCCCC3)c2)cc1 returned OX1R FRET antag 10.
For CC1CCC(NC(=O)CCN2C(=O)C3CC=CCC3C2=O)CC1 (stereo unspecified) the results were OX1R FRET antag 7.
For COC(=O)c1ccc(NC(=O)CCN2C(=O)C3CC=CCC3C2=O)cc1 (stereo unspecified) the results were OX1R FRET antag 2.
Screening O=C(CSc1nnc(C2CC2)n1C1CC1)c1cccs1 returned OX1R FRET antag 7.
For COc1ccccc1N(CC(=O)N/N=C(\C)c1ccc(F)cc1)S(=O)(=O)c1ccccc1 the results were OX1R FRET antag 14.
COCCN1C(=O)N[C@@H](c2ccccc2)C(C(C)=O)=C1C was read as OX1R FRET antag 8.
`Cn1c(-c2ccc(F)c(F)c2)cc2onc(-c3ccccc3)c2c1=O` gave OX1R FRET antag 15.
Screening COc1ccccc1-c1nnc2sc(C3CCCCC3)nn12 returned OX1R FRET antag 5.

3 compounds from above, sorted by molecular weight, high to low:
Screening CCOC(=O)CCc1c(C)nc2cc(C3CCCN(C(=O)OC(C)(C)C)C3)[nH]n2c1=O (stereo unspecified) returned OX1R FRET antag 0.
`Cn1c(-c2ccc(F)c(F)c2)cc2onc(-c3ccccc3)c2c1=O` gave OX1R FRET antag 15.
Screening O=C(CSc1nnc(C2CC2)n1C1CC1)c1cccs1 returned OX1R FRET antag 7.

A section of the results above, as a working copy:
Screening O=C(CSc1nnc(C2CC2)n1C1CC1)c1cccs1 returned OX1R FRET antag 7.
For COc1ccccc1N(CC(=O)N/N=C(\C)c1ccc(F)cc1)S(=O)(=O)c1ccccc1 the results were OX1R FRET antag 14.

Source: PubChem (The Scripps Research Institute Molecular Screening Center)
